NPR1 antag: human Npr1 receptor antagonism; P16066; HEK293 hNpr1 GloSensor cGMP, ANP-stimulated luminescence; Potency, µM (titrated, usually from 46.3 µM), for inactives: top-dose activity change, negative = inhibition, actives largely listed as inhibitors; 76,000 tested, 1.6% active; AID 1347048; active = well fitted inhibition curve with a large enough effect; inconclusive = small, poorly fitted or top-dose-only effect; inactive = no such curve, though single readings can be large or run the other way;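 note: nearly all actives have a fitted effect of over 60% in size; nearly all hits also lower the signal before the agonist is added; a reference antagonist and vehicle were the controls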
Target sequence (P16066 whole entry, looked up): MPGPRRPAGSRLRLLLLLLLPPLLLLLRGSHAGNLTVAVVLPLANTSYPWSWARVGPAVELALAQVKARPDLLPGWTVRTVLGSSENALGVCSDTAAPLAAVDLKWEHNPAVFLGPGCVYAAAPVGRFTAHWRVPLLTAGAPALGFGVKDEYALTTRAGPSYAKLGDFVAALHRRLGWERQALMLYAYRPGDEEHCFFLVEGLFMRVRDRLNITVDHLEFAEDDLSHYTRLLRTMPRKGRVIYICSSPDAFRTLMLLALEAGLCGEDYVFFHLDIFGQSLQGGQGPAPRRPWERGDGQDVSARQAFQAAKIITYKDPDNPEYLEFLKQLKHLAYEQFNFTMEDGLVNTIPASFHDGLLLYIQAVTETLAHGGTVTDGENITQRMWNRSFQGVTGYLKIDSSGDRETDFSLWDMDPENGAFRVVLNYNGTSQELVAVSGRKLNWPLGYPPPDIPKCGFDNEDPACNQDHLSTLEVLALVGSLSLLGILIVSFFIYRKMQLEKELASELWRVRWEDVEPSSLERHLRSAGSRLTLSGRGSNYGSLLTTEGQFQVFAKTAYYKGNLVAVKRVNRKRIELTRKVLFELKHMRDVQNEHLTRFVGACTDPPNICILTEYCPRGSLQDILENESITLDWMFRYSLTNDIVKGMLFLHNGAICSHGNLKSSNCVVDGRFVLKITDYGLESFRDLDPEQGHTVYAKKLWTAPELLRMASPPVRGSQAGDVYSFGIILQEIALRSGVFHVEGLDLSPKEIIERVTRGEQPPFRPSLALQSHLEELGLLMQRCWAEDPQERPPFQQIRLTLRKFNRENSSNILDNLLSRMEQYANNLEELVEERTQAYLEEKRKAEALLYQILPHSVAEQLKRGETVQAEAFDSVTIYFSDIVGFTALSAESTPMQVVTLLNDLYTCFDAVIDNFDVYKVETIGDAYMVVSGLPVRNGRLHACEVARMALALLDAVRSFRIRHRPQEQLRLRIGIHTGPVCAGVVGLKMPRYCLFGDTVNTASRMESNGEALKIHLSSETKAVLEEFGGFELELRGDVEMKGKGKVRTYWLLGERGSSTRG
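HEK293 cells stably expressing human Npr1 and cGMP GloSensor pGS-40F, loaded 2 h with 2% GloSensor reagent, given compound 30 min at room temperature. Luminescence read before and 20 min after 0.1 nM hNppA.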
An asterisk follows results filed as active; ? = inconclusive; [ ] = another dose, or the depositor's remark. % is set by controls: 0 for no effect and ±100 for the full control effect; potency is the fitted concentration of half-maximal effect. Not all compounds are listed; count on the stated rates, not on these rows.

compound | NPR1 antag
Cc1ccc(-c2nnc(C3CN(C(=O)c4ccco4)CC34CCOCC4)o2)cc1 (stereo not drawn) | -1%
CCc1ccccc1NC(=O)N1CCCC(Cn2cnc3cccnc32)C1 (stereo not drawn) | 2%
CCC(=O)N1CCC(N2CC(OC)C23CCOCC3)CC1 (stereo not drawn) | 6%
O=C(O)c1ccc(NCc2nc3c(n2Cc2ccccc2)C(=O)N(Cc2cccc(Cl)c2)CCN3)cc1 | -23%
Cn1cccc1C(=O)N1C[C@@H](COc2ccccc2)[C@H](C(N)=O)C1 | 2%
O=C(Nc1ccc(-c2nnc3n2CCCC3)cc1)C1CCC1 | -12%
CCCCNc1ncc(C(=O)O)c(C)n1 | -4%
Cc1nc(-c2nc3c([nH]2)CCCNC3=O)cc(=O)[nH]1 | -5%
COC(=O)[C@@H]1Cc2ncn(C(C)C)c2CN1S(=O)(=O)c1cccc(C(F)(F)F)c1 | -1%[70.6 µM]
Cc1nnsc1C(=O)N[C@H]1CCN(C(=O)c2cccn2C)[C@H](C(=O)N[C@H](Cc2ccccc2)C(N)=O)C1 | 1%
O=C(Cc1ccc(OC(F)(F)F)cc1)N1CC2CC(C1)[C@H]1CCCC(=O)N1C2 (stereo partly drawn) | -2%
COCCOc1ncccc1-c1noc([C@@H]2CCCN2Cc2ccc(OC)cc2)n1 | 3%[70.6 µM]
COCCN1C(=O)c2ccccc2C(C(=O)NC2CC2)C12CCCCC2 (stereo not drawn) | 1%
COC1CN(c2cccc(F)c2)C12CCN(C(=O)c1ccc3ccccc3n1)CC2 (stereo not drawn) | 3%
Cc1oc2c(c1C(=O)N(C)C)CN(C(=O)CCc1ccccc1)CC2 | -1%
O=C(NC[C@@H]1C[C@H](F)CN1)c1ccc(-c2cn(-c3ccccc3)cn2)cc1 | -3%
Cc1cc(CNC(=O)[C@@H]2CCC[C@@H](NC3CCC3)CN(C)C(=O)C2)no1 | -2%[70.6 µM]
COc1ccc(-c2noc(C(=O)NC3CCC3)c2[C@H](C)O)cc1 | -16%[70.6 µM]
CCc1ccc(NC(=O)C2CCN(C(=O)c3ncn4c3COC(c3ccccc3)C4)CC2)cc1 (stereo not drawn) | -17%
CC(C)C1=NOC(C(=O)N2CCn3nc(C(=O)NCc4ccccn4)cc3C2)C1 (stereo not drawn) | -4%
CC1(COc2ccc3[nH]ccc3c2)COc2ccc(C(=O)Nc3cccnc3)cc2N1 (stereo not drawn) | ?
COc1ccccc1N1CCCc2ncc(C(=O)Nc3cccc(F)c3)cc21 | ?
N#Cc1cccc(C(=O)NC2CCCN(c3cc(-c4ccc(F)cc4)[nH]n3)C2)c1 (stereo not drawn) | ?
CC1=C(C(=O)NCCc2c[nH]c(=O)[nH]c2=O)C(c2cccnc2)NC(=O)N1 (stereo not drawn) | 5%
O=C(CCc1nnn2c1CN(C(=O)Nc1ccccc1)CC2)N1CCOCC1 | 0%
CS(=O)(=O)N1CCCC(C(=O)NCCN2CCc3ccccc3C2)CCNC(=O)CC1 (stereo not drawn) | 1%
Cc1cn2nc(C(=O)N3CCC(NC(=O)c4cccc(C#N)c4)CC3)cc2c(=O)[nH]1 | 16%
CN(Cc1nc2ccc(Cl)cc2[nH]1)C(=O)c1ccc2nccn2c1 | -1%
CN(CC1CCOC1)S(=O)(=O)c1ccccc1Cl (stereo not drawn) | 5%
COC(=O)[C@@H]1Cc2c([nH]c3ccccc23)[C@H]2C[C@@H](NCCN3CCOCC3)C[C@@H](c3ccc(F)c(F)c3)N21 | -19%

The listing continues:
compound | NPR1 antag
O=C(c1nnc(COc2ccc(F)cc2)n1-c1ccccc1)N1CCC[C@@H]1C(c1ccccc1)c1ccccc1 | -8%
O=C(NCCc1ccc(Cl)cc1)c1nc(-c2ccccc2)c2ccccn12 | 5%
O=C1CC(c2ccccc2)N(Cc2ccncc2)CCCN(Cc2cccnc2)CCN1 (stereo not drawn) | -2%
Cc1ccc(C(=O)NC[C@@H]2CC[C@H]3C[C@@H]2C3(C)C)cc1 | 6%[70.6 µM]
CC(=O)NCCC1CCN(C(=O)Nc2ccccc2F)CC1 | 1%
CC(C)c1noc([C@@H]2C[C@H]3C(=O)NCCCCCCN(C(=O)c4ccc(C#N)cc4)[C@H]3C2)n1 | 0%
CCc1noc([C@@H]2CC(F)(F)CN2C(=O)C2CCNCC2)n1 | 1%
CCCn1c(C)cnc1CC1CCN(C(=O)NCc2ccc(OC)cc2)C1 (stereo not drawn) | 6%
O=C(N[C@H]1[C@H](O)[C@H](O)C[C@@H]1c1ccc(C(F)(F)F)nc1)c1ccc2c(c1)OCCO2 | -2%[70.6 µM]
CCc1cccc(NC(=O)Nc2cccc(-c3ccc(N4CCOCC4)nn3)c2)c1 | ?
CN1CC(=O)N(CC(=O)N[C@@H]2COCC[C@@H]2OCc2cscn2)C1=O | -1%
CS(=O)(=O)c1ccc2c(c1)nc1n2[C@@H](CNC(=O)c2ccccc2)COC1 | 0%[70.6 µM]
COCCn1c(COc2cccc(-n3nnnc3C)c2)nnc1C1CC(N)C1 (stereo not drawn) | -1%
C[C@]1(O)CCN(C(=O)c2cccc(Oc3ccccc3)c2)C[C@@H]1O | 12%
Cc1ccc(NC(=O)N2CCCC(Cn3cnc4cccnc43)C2)c(C)c1 (stereo not drawn) | -1%
COCCN1Cc2ccc(NCc3ccccc3)nc2C(C)(C(=O)Nc2cccnc2)C1 (stereo not drawn) | 5%[70.6 µM]
CCN(CCCNC(=O)c1nnn2cc(-c3ccccc3)[nH]c(=O)c12)c1ccccc1 | -20%
CC1(C)[C@H]2CC[C@@H](CNC(=O)c3ccccc3F)[C@@H]1C2 | -2%[70.6 µM]
CCN(CC)c1ccc(C(=O)NCc2nnc3ccc(-c4ccc(C)cc4)nn23)cc1 | 0%
Cc1cc(CNC(=O)[C@@H]2CCC[C@@H](NC(=O)c3ccccc3)CN(C)C(=O)C2)no1 | 1%[70.6 µM]
O=C(c1ccc(F)c(Cl)c1)N1CCCC2(C1)NC(=O)N(Cc1ccccc1)C2=O (stereo not drawn) | -11%
Cc1ccc(CNC(=O)C2CCN(C(=O)N3CC4CC(C3)[C@H]3CCCC(=O)N3C4)CC2)o1 (stereo partly drawn) | 6%
O=C(NC1CCc2nnc(C3CC3)n2CC1)c1ccc(Cn2cncn2)o1 (stereo not drawn) | -7%
COc1cccc(NC(=O)N2CCN3C(=O)N(C)C[C@H]3C2)c1 | 1%[70.6 µM]
CC(=O)N1CCCN(Cc2nnc(C(=O)N3CCC[C@@H]3c3cccc(F)c3)n2-c2cccnc2)CC1 | -1%
COc1cccc(CN2CCC3(CC2)NCCc2c3[nH]c3ccccc23)c1 | -15%
O=C(CCc1cc(Cl)no1)N1CCc2nc3cc(-c4ccccc4)[nH]n3c(=O)c2C1 | -9%
Cc1ccc2cc(CCC(=O)N3CCN(c4ccccn4)CC3)c(=O)[nH]c2c1 | -9%
CCN(CC)C(=O)c1ccc2c(c1)n(Cc1ccc(OC)cc1)c(=O)c1ccnn12 | 3%
Cc1cn2nc(C(=O)N3CCC(NC(=O)Cc4c[nH]c5ccccc45)CC3)cc2c(=O)[nH]1 | 1%

(more compounds)
mol	NPR1 antag
O=C(c1cc(Br)cn2ccnc12)N1CCN(c2ncccn2)CC1	4%
CCc1nc2nccc(-c3ccc(OC)cc3)n2n1	-5%
CSc1ccc(CNC(=O)c2cc3c(N(C)Cc4ccccc4)nc(C)cn3n2)cc1	6%
CC(CCn1cccn1)NC(=O)c1ccc(OC2CCN(C(=O)C3CC3)CC2)cc1 (stereo not drawn)	-1%
Cc1cccc(CC(=O)N2CCCC(c3nn(C)c(=O)n3Cc3ccccc3)C2)c1 (stereo not drawn)	-3%
O=C1Nc2ccccc2O[C@H]2C[C@@H]1N(C(=O)c1ccccc1)C2	1%[70.6 µM]
O=C(Cc1ccc2c(c1)OCO2)N1CCCn2nc(C(O)CO)cc2C1 (stereo not drawn)	-1%
O=C(NC1CCCC1)N1CC(Oc2cccc(-c3nc(-c4ccccc4)no3)c2)C1	1%

Continuation.
mol	NPR1 antag
CN(C)[C@@H]1CN(C(=O)c2ccoc2)CC[C@]1(O)c1ccccc1	-1%
CCNC(=O)Nc1ccc(OCC(=O)NCc2cccs2)nc1	-2%
Cc1nccc(N2CCC(Oc3cnc4c(ccn4CCN[S+](C)(=O)[O-])c3)CC2)n1	28µM*
CC(=O)Nc1cccc(C(=O)N2CCC(c3n[nH]c(=O)n3-c3ccc(C)cc3)CC2)c1	-1%
O=C1N2CCCC2CN1C1CCN(Cc2cccc(Cl)c2)CC1 (stereo not drawn)	1%[70.6 µM]
CN(Cc1ccccc1)Cc1ccc(F)cc1	2%[70.6 µM]
COc1nc(C)c(C(=O)N2C[C@H](CO)C[C@H](CN3CCCC3)C2)s1	9%
O[C@@H]1CN(CC2CC2)CC[C@H]1N1CCN(c2ccccc2F)CC1	0%

Additional entries follow:
mol	NPR1 antag
COc1ccc(NC(C)=O)cc1NC(=O)Cn1nc2c(cc1=O)CCCC2	4%
CCC(=O)N1CCN(c2nc3c(s2)CC(C(=O)NCc2ccccc2)CC3)CC1 (stereo not drawn)	-1%
COc1ccc(-c2ncc(CN3CCCC4(C3)CN(C)C(=O)O4)cn2)cc1 (stereo not drawn)	1%
CN1CCN(C(=O)c2ccc(-c3nnc4ccc(NC(=O)C5CCC5)cn34)cc2)CC1	-2%
CC1(C(=O)NCc2cccc(F)c2)CCCc2cnc(Nc3cccnc3)nc21 (stereo not drawn)	-11%[70.6 µM]
OCC1(CCCc2ccccc2)CCN(Cc2ccc(-n3cccn3)cc2)CC1	?
COc1ccc(CC(=O)N2CC[C@@H](CC(=O)O)[C@@H](CCN(CCN3CCOCC3)c3ccccc3)C2)cc1	3%
CC(C)c1noc(-c2cccn3c(CNC(=O)CCC4CCCC4)nnc23)n1	2%

(listing goes on)
mol	NPR1 antag
CCOc1ccccc1C1NC(=O)N(CC(=O)Nc2cccc(C)c2)C2=C1C(=O)OC2 (stereo not drawn)	?
Cc1ccc2oc(C(=O)N[C@H]3COC[C@H]3Cc3cc(C)no3)c(C)c2c1	4%
COc1ccc(N2C(=O)C3(CCCCC3)C2C(=O)NCCCN2CCCCC2)cc1 (stereo not drawn)	4%
Cc1ccc(NC(=O)c2cc3c(N(C)Cc4ccccc4)nc(C)cn3n2)c(F)c1	4%
COc1ccc(Cl)cc1-c1ccc2c(c1)C(=O)N1CCN(C(=O)c3cccs3)C[C@@H]1C(=O)N2	-16%
O=C(CN1C(=O)CNC1=O)N1CCN(Cc2ccccc2)CC(O)C1 (stereo not drawn)	-11%
O=C(Nc1ccc2ncnc(N3CCCCC3)c2c1)c1cccc(Cl)c1	?
COc1ccc(-c2cc(N3CCCC(NC(=O)Cc4cccs4)C3)n[nH]2)cc1 (stereo not drawn)	-2%

Later entries:
mol	NPR1 antag
O=C1CC(c2ccccc2)N(S(=O)(=O)c2cccc(F)c2)CCCCCN1 (stereo not drawn)	1%
Cn1cc(CN2Cc3c(cc(N4CCOCC4)nc3-c3cccc(F)c3)C2=O)cn1	-23%[70.6 µM]
COc1cccc(CNC(=O)CCC2CCN(S(=O)(=O)c3ccc(C)cc3)CC2)c1	-14%
Cc1cc(N2CCC(c3[nH]ncc3Cc3ccccc3)CC2)nc(N)n1	1%
C[C@]1(CO)[C@H]2Cc3sc(NC(=O)c4c(F)cccc4F)nc3[C@@H](CC(=O)NC3CC3)[C@]2(C)CC[C@H]1O	4%
COC[C@H]1CCCN1Cc1nc(C2(O)CCN(C3CCC3)CC2)cs1	-2%[70.6 µM]
O=C([C@@H]1CNC[C@H](C(=O)N2CCN(c3nccs3)CC2)C1)N1CCCC1	-2%
COC(=O)[C@@H]1Cc2ncn(C)c2CN1C(=O)C(C)(C)C	-2%[70.6 µM]

An excerpt from above in order of the NPR1 antag value, highest first:
molecule	NPR1 antag
Cc1ccc(CNC(=O)C2CCN(C(=O)N3CC4CC(C3)[C@H]3CCCC(=O)N3C4)CC2)o1 (stereo partly drawn)	6%
CN(CC1CCOC1)S(=O)(=O)c1ccccc1Cl (stereo not drawn)	5%
Cc1ccc(NC(=O)c2cc3c(N(C)Cc4ccccc4)nc(C)cn3n2)c(F)c1	4%
O=C1CC(c2ccccc2)N(S(=O)(=O)c2cccc(F)c2)CCCCCN1 (stereo not drawn)	1%
CC(=O)N1CCCN(Cc2nnc(C(=O)N3CCC[C@@H]3c3cccc(F)c3)n2-c2cccnc2)CC1	-1%
Cc1nc(-c2nc3c([nH]2)CCCNC3=O)cc(=O)[nH]1	-5%

New compounds follow:
mol	NPR1 antag
COc1ccc2[nH]c3c(c2c1)CCN(C)C31CCN(C(=O)CC(C)C)CC1	1%
COc1ccc(C(=O)N2CCN(c3cc(-c4ccc(Cl)cc4)[nH]n3)CC2)cc1OC	6.3µM*
Cc1ccc(CNC(=O)c2c(C)noc2-c2ccc3c(c2)OCO3)o1	-11%
CNC(=O)[C@H]1C[C@H](Oc2ccccc2)CN1S(=O)(=O)c1cn(C)cn1	-8%
COc1ccc(CN2CCC(C3CCNC3)CC2)c(OC)c1 (stereo not drawn)	6%
CC(=O)Nc1ccc(C2(C(=O)O)CCC2)cc1	-1%
CN(C)C(=O)c1cccnc1OC1CCN(C(=O)Cc2ccc(Cl)cc2)C1 (stereo not drawn)	-3%
Cc1ccc(C)c(NC(=O)Cn2c(=O)c(-c3noc(C)n3)c3n(c2=O)CCCCC3)c1	4%

(listing goes on)
mol	NPR1 antag
CN(Cc1cc(-c2ccncc2)no1)C(=O)CCc1cc2n(n1)CCCNC2	1%
CC(=O)N1CCN(C(=O)c2cccnc2)C[C@H]1C(=O)N[C@@H](CC1CCCCC1)C(N)=O	2%[70.6 µM]
COC(=O)C1=C(C)N=C2SC=C(CC(=O)NC3CC3)N2C1c1ccc(C(C)C)cc1 (stereo not drawn)	-30%
COc1ccc(CC(=O)N[C@@H]2CN(c3ccccn3)C[C@H]2CN(C)C)cc1OC	0%

Bioassay records: PubChem BioAssay, National Center for Advancing Translational Sciences (NCATS)
